Assay outcomes deposited in PubChem by several laboratories.
ALR inh – inhibitors of human sulfhydryl oxidase ALR | inhibition, % (concentration not given with the values) | P55789 | 290,000 tested, 3.8% active | purified ALR, DTT oxidation, H2O2 HRP-luminol luminescence | AID 485317;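 active means mean and each replicate at 75% or more; inconclusive means only one of the two met; inactive means neither met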;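 further: stock transfer was 7.5 nL into about 7.5 µL; 0% = neutral wells and 100% = wells with inactivated enzyme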
Target sequence (P55789 whole entry, looked up): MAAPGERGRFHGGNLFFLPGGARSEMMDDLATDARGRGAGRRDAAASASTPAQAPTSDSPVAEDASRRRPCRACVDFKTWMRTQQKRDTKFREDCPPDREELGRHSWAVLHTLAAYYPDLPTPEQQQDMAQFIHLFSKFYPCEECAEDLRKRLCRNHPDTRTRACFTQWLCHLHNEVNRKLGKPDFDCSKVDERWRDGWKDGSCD
FGF22 binding – binders of recombinant human FGF22 by thermal shift; SYPRO orange fluorescence; percent of sucrose octasulfate shift, DMSO zero; calls only at 9.99 µM; 340,000 tested, 1.5% active; AID 651658;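 active means melting point raised past a set limit in the mean and every replicate; inconclusive means no clear call; three in four hits are not shown here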
Target sequence (Q9HCT0 whole entry, looked up): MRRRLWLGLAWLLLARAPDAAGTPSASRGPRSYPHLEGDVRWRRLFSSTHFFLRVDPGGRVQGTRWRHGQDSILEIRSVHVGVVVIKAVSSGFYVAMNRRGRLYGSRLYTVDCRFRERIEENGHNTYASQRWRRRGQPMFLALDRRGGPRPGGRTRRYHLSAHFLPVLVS
MLL AF4-AF9 inh – blocks AF4 peptide binding to human AF9 | P42568 | AlphaScreen, biotin-AF4 peptide binding to FLAG-AF9 | inhibition, % at 10 µM | 350,000 tested, 0.47% active;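 active means every replicate reaching a set inhibition limit, whatever the replicate mean, cut at about 25% in these data; inconclusive means mean inhibition reaches that limit but some replicates miss it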;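 further: 0% = plate neutral control median and 100% = total signal loss; the record names both 10 and 1 µM as test concentration; the first replicate is given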
Target sequence (P42568 whole entry, looked up): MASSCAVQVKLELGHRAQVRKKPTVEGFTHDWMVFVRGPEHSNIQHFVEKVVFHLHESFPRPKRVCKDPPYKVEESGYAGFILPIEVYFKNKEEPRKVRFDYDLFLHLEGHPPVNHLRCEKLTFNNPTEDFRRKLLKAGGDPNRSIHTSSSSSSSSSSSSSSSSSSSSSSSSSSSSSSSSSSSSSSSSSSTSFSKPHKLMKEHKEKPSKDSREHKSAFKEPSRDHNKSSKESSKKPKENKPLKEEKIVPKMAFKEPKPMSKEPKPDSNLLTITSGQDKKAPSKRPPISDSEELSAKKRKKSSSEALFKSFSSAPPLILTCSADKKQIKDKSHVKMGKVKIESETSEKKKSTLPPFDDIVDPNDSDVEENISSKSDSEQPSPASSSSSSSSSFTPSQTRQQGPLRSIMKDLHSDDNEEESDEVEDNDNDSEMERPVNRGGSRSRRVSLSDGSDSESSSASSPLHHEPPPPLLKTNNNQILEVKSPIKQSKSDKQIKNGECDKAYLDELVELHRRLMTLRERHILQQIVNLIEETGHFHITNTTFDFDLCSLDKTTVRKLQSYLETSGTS
Vif A3G – HIV-1 Vif–A3G interaction blockers – biochemical, TR-FRET, GST-Vif 1-94, biotin-A3G peptide, dose response retest, primary screen (AID 1117319). inhibition, %; hits with a dose series show IC50 in µM. 260,000 tested, 0.57% active. TR-FRET GST-Vif / biotin-A3G peptide binding; higher % means a stronger effect; test concentration not given here; strong numbers were not always called active;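 active means above the screen mean plus three standard deviations and confirmed in dose response; inconclusive means results disagree or hit not tested in dose response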;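 further: Vif residues 1-94 fused to GST binding biotinylated APOBEC3G peptide 110-148; 0% = full assay without inhibitor and 100% = GST in place of GST-Vif; retest series ran down from 100 µM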
HNF4A DNA FP – change in binding of human HNF4 alpha to DNA; P41235; HNF4a-FITC DNA binding, fluorescence polarization, 1 h; activity change, % at 10 µM; 360,000 tested, 0.3% active; in the data active means activity change above about 30%, passing the limit was not always enough;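 further: controls were the assay level and a saturating level of protein; the project sought stronger binding though the title names inhibitors; some compounds called inactive have numbers as strong as hits; positive values seem to mean higher polarization but the record does not say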
rRNA inh HTS – inhibitors of bacterial rRNA selective over humanized ribosomes. E. coli WT GFP vs humanized-ribosome RFP mutants, fluorescence, 24 h; stronger effect = lower value; DMSO median 0, no signal -100. GFP signal change (wild-type ribosome), % (concentration not given with the values). 350,000 tested, 1.6% active. AID 720706;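 active means significant combined selectivity score with lowered wild-type GFP, culture density cut under 30%, mutant RFP and density less affected; inactive means any of these conditions unmet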; further: one replicate is shown; some compounds called inactive have numbers as strong as hits
E coli growth – inhibitors of Escherichia coli growth; OD600, 23 h; stronger effect = lower value; OD600 absorbance (concentration not given with the values); 330,000 tested, 0.21% active; AID 1053175;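 active means OD600 absorbance below the run mean of sample wells minus 3.6 SD, in any replicate, cut at about 0.56 in these data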;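 further: stock transfer was 300 nL into about 60 µL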
rRNA inh HTS OD600 – also measured in rRNA inh HTS; calls as there; OD600 change, %; measured here: OD600 growth;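 optical density of the mix in the first replicate; 0 = DMSO median and -100 = no signal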
rRNA inh HTS RFP – recorded beside rRNA inh HTS, whose call it bears; RFP signal change, %; measured here: RFP humanized mutant strains;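 first replicate; 0 = DMSO median and -100 = no signal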
Starred values were filed as active, the others as inactive; & = joins results of further samples.

Screening NS(=O)(=O)c1ccc(CCNS(=O)(=O)Cc2ccc(Cl)cc2)cc1 returned ALR inh -9, FGF22 binding inactive, MLL AF4-AF9 inh -7.9, HNF4A DNA FP 2.8, rRNA inh HTS 10, E coli growth 0.69, rRNA inh HTS OD600 8 and rRNA inh HTS RFP -2.3.
For COC(=O)c1c(SCC(=O)Nc2ccc(C)c(C)c2)nc(=O)[nH]c1C the results were ALR inh 3, FGF22 binding inactive, MLL AF4-AF9 inh 0.3, Vif A3G 1%, HNF4A DNA FP 4.5, rRNA inh HTS 11, E coli growth 0.66, rRNA inh HTS OD600 12 and rRNA inh HTS RFP 7.7.
CC1(C(=O)NS(=O)(=O)c2ccccc2Cl)CCN1C(=O)c1cccc(F)c1 (configuration not stated) was read as FGF22 binding inactive, MLL AF4-AF9 inh 0.7, HNF4A DNA FP -1.8, rRNA inh HTS 4, rRNA inh HTS OD600 9 and rRNA inh HTS RFP -1.5.
Screening O=C(CSc1ccccn1)N1CCN(C(=O)CSc2ccccn2)CC1 returned ALR inh -15, Vif A3G 1% and HNF4A DNA FP 1.0.
`Cc1cc(NC(=O)c2cccc(Br)c2)n[nH]1` gave ALR inh 12, FGF22 binding inactive, MLL AF4-AF9 inh 1.9, HNF4A DNA FP 1.7, rRNA inh HTS 6, E coli growth 0.64, rRNA inh HTS OD600 1 and rRNA inh HTS RFP 2.7.
`CCOC(=O)C1=C(COC(=O)CNS(=O)(=O)c2ccc(NC(C)=O)cc2)NC(=O)NC1C` (configuration not stated) gave FGF22 binding inactive, MLL AF4-AF9 inh 2.6, HNF4A DNA FP 3.8, rRNA inh HTS 12, E coli growth 0.6, rRNA inh HTS OD600 9 and rRNA inh HTS RFP 4.9.
For O=C(O)c1cc2sccc2s1 the results were ALR inh -4, Vif A3G -9% and E coli growth 0.7.
`CCc1ccc(NC(=O)Nc2ccc3c(c2)N(C)C(=O)CS3)cc1` gave ALR inh inconclusive, FGF22 binding inactive, MLL AF4-AF9 inh -1.6, Vif A3G -1%, HNF4A DNA FP -1.7, rRNA inh HTS -11, E coli growth 0.73, rRNA inh HTS OD600 -6 and rRNA inh HTS RFP -6.7.
Cc1[nH]n(-c2ccccc2)c(=O)c1C=Nc1cnc2ccccc2c1 was read as ALR inh -5, Vif A3G inconclusive, HNF4A DNA FP -3.6 and E coli growth 0.68.
Screening C[C@H](CO)N1C[C@H](C)[C@H](CN(C)C(=O)c2cccnc2)Oc2ncc(C#CCN(C)C)cc2C1=O returned FGF22 binding inactive, MLL AF4-AF9 inh -5.9, rRNA inh HTS 3, rRNA inh HTS OD600 3 and rRNA inh HTS RFP -0.9.
Screening C[C@@H]1CCCCO[C@H](CN(C)C(=O)CCC(F)(F)F)[C@H](C)CN([C@H](C)CO)C(=O)c2cc(NS(=O)(=O)c3ccccc3)ccc2O1 returned FGF22 binding inactive, MLL AF4-AF9 inh 0.5&-1.0, rRNA inh HTS -3, rRNA inh HTS OD600 -3 and rRNA inh HTS RFP 1.4.
For CCSc1cc(N2CCCC2)nc(-c2ccc(Cl)cc2)n1 the results were ALR inh -4, FGF22 binding inactive, MLL AF4-AF9 inh -4.8, HNF4A DNA FP -2.4, rRNA inh HTS 3, E coli growth 0.8, rRNA inh HTS OD600 7 and rRNA inh HTS RFP -3.1.
`CC(C)C[C@H]1CN(CCCC[C@@H]2CNC(=O)C(=O)N2CC2CCCCC2)C(=O)C(=O)N1CC1CCCCC1` gave FGF22 binding inactive, MLL AF4-AF9 inh -1.6, HNF4A DNA FP 0.7, rRNA inh HTS -9, rRNA inh HTS OD600 -15 and rRNA inh HTS RFP -1.9.
Screening CCOC(=O)C1(C)CCCN(C(=O)c2ccccc2)C1 (configuration not stated) returned FGF22 binding inactive, MLL AF4-AF9 inh -12, HNF4A DNA FP -1.9, rRNA inh HTS 7, rRNA inh HTS OD600 13 and rRNA inh HTS RFP -0.3.
Screening Nc1nc(-c2ccccc2)nc(-c2ccccc2O)n1 returned ALR inh -1, HNF4A DNA FP 0.5 and E coli growth 0.68.

Nothing new here: four of the compounds above.
Screening C[C@@H]1CCCCO[C@H](CN(C)C(=O)CCC(F)(F)F)[C@H](C)CN([C@H](C)CO)C(=O)c2cc(NS(=O)(=O)c3ccccc3)ccc2O1 returned FGF22 binding inactive, MLL AF4-AF9 inh 0.5&-1.0, rRNA inh HTS -3, rRNA inh HTS OD600 -3 and rRNA inh HTS RFP 1.4.
For CCSc1cc(N2CCCC2)nc(-c2ccc(Cl)cc2)n1 the results were ALR inh -4, FGF22 binding inactive, MLL AF4-AF9 inh -4.8, HNF4A DNA FP -2.4, rRNA inh HTS 3, E coli growth 0.8, rRNA inh HTS OD600 7 and rRNA inh HTS RFP -3.1.
`CC(C)C[C@H]1CN(CCCC[C@@H]2CNC(=O)C(=O)N2CC2CCCCC2)C(=O)C(=O)N1CC1CCCCC1` gave FGF22 binding inactive, MLL AF4-AF9 inh -1.6, HNF4A DNA FP 0.7, rRNA inh HTS -9, rRNA inh HTS OD600 -15 and rRNA inh HTS RFP -1.9.
Screening CCOC(=O)C1(C)CCCN(C(=O)c2ccccc2)C1 (configuration not stated) returned FGF22 binding inactive, MLL AF4-AF9 inh -12, HNF4A DNA FP -1.9, rRNA inh HTS 7, rRNA inh HTS OD600 13 and rRNA inh HTS RFP -0.3.

(next part)
COc1ccc(NS(=O)(=O)c2ccc(C(=O)N3CCN(Cc4ccccc4)CC3)cc2)cc1 was read as ALR inh 0, FGF22 binding inactive, MLL AF4-AF9 inh 1.0, Vif A3G 1%, HNF4A DNA FP -2.4, rRNA inh HTS -19, E coli growth 0.7, rRNA inh HTS OD600 -21 and rRNA inh HTS RFP 1.1.
Screening CN(C)c1nc(N)c([N+](=O)[O-])c(NCc2ccccc2)n1 returned ALR inh 0, FGF22 binding inactive, MLL AF4-AF9 inh 4.1, Vif A3G -1%, HNF4A DNA FP 0.9, rRNA inh HTS 25, E coli growth 0.7, rRNA inh HTS OD600 8 and rRNA inh HTS RFP -0.1.
`Cn1cnc([N+](=O)[O-])c1Sc1ccc(C(C)(C)C)cc1` gave ALR inh -2, FGF22 binding inactive, MLL AF4-AF9 inh 0.0, Vif A3G 12%, HNF4A DNA FP -2.5, rRNA inh HTS 2, E coli growth 0.67, rRNA inh HTS OD600 1 and rRNA inh HTS RFP 1.4.
Screening Cc1nn(C)c(C)c1CNC(=O)Nc1ccc(Cl)cc1 returned ALR inh -6, FGF22 binding inactive, MLL AF4-AF9 inh 0.8, HNF4A DNA FP 0.9, rRNA inh HTS -5, E coli growth 0.68, rRNA inh HTS OD600 -15 and rRNA inh HTS RFP -2.5.
`Cc1ccc(Cl)c(NC(=S)N(CCCN2CCOCC2)Cc2ccco2)c1` gave ALR inh -3, FGF22 binding inactive, MLL AF4-AF9 inh 0.8, Vif A3G 0%, HNF4A DNA FP 4.1, rRNA inh HTS 2, E coli growth 0.64, rRNA inh HTS OD600 -4 and rRNA inh HTS RFP 2.2.
Screening CCOC(=O)c1sc(NC(=O)c2cccs2)nc1C returned FGF22 binding inactive, MLL AF4-AF9 inh -2.2, Vif A3G 3%, HNF4A DNA FP 7.3, rRNA inh HTS 28, E coli growth 0.66, rRNA inh HTS OD600 7 and rRNA inh HTS RFP 5.3.
COC(=O)/C=C1/SC(=NC(=O)c2cccc([N+](=O)[O-])c2)NC1=O was read as ALR inh 15, FGF22 binding inactive, MLL AF4-AF9 inh -2.9, Vif A3G -2%, HNF4A DNA FP 1.2, rRNA inh HTS 10, E coli growth 0.69, rRNA inh HTS OD600 4 and rRNA inh HTS RFP -3.0.
Screening Cc1sc2c(c1C)c(=O)n(-c1ccccc1)c1nncn21 returned ALR inh -12, Vif A3G -2%, HNF4A DNA FP 0.1, rRNA inh HTS 12, E coli growth 0.7, rRNA inh HTS OD600 10 and rRNA inh HTS RFP -2.5.
`Cc1nnc2ccc(-c3ccc(NS(=O)(=O)c4ccc(Cl)s4)cc3)nn12` gave ALR inh -1, FGF22 binding inactive, MLL AF4-AF9 inh -5.4, Vif A3G -4%, HNF4A DNA FP 1.3, rRNA inh HTS 4, E coli growth 0.68, rRNA inh HTS OD600 2 and rRNA inh HTS RFP 3.7.
Cc1cccc(-c2ccc([C@H]3[C@@H](CO)N4CCCCN(Cc5cncnc5)C[C@H]34)cc2)c1 was read as FGF22 binding inactive, MLL AF4-AF9 inh 7.5, rRNA inh HTS -1, rRNA inh HTS OD600 5 and rRNA inh HTS RFP -0.2.
For CCn1ncc(C(=O)Nc2cccc(Cl)c2)c1C the results were ALR inh -8, FGF22 binding inactive, MLL AF4-AF9 inh 3.0, Vif A3G -1%, HNF4A DNA FP -2.3 and E coli growth 0.69.
O=C(C[C@H]1C=C[C@@H](NC(=O)c2ccccc2)[C@@H](CO)O1)NCc1ccc(Oc2ccccc2)cc1 was read as FGF22 binding inactive, MLL AF4-AF9 inh -0.3, rRNA inh HTS -4, rRNA inh HTS OD600 -21 and rRNA inh HTS RFP 2.9.
For Cc1ccc(-c2cc(=O)c3cc(F)ccc3[nH]2)cc1 the results were FGF22 binding inactive, MLL AF4-AF9 inh -0.3, Vif A3G -6%, HNF4A DNA FP -0.7, rRNA inh HTS 7, E coli growth 0.67, rRNA inh HTS OD600 12 and rRNA inh HTS RFP 14.
`Cc1noc(C)c1NC(=O)N(C)C[C@H]1Oc2ccc(NC(=O)CCC(F)(F)F)cc2C(=O)N([C@H](C)CO)C[C@H]1C` gave FGF22 binding inactive, MLL AF4-AF9 inh -1.3, rRNA inh HTS -1, rRNA inh HTS OD600 10 and rRNA inh HTS RFP -0.6.
`COc1cc2ncnc(NCc3ccccc3C)c2cc1OC` gave ALR inh -3, Vif A3G 4%, HNF4A DNA FP 3.0 and E coli growth 0.75.
`CCCc1cc(C(=O)N2CCN(c3ccccc3C)CC2)cs1` gave ALR inh 1, Vif A3G 13%, HNF4A DNA FP 2.4 and E coli growth 0.65.
`N#C[C@H]1[C@H](c2ccccc2-c2ccccc2F)[C@H](CO)N1C(=O)Cc1ccccc1` gave FGF22 binding inactive, MLL AF4-AF9 inh -0.5, rRNA inh HTS -13, rRNA inh HTS OD600 -23 and rRNA inh HTS RFP 0.9.
Cn1cc(S(=O)(=O)Nc2ccc(OC(F)(F)F)cc2)c(=O)n(C)c1=O was read as ALR inh -6, FGF22 binding inactive, MLL AF4-AF9 inh 7.2, Vif A3G 8%, HNF4A DNA FP 0.0, rRNA inh HTS 6, E coli growth 0.66, rRNA inh HTS OD600 14 and rRNA inh HTS RFP 5.4.
`COCCN(C(=O)CNC(=O)c1ccco1)C(C(=O)NC1CCCC1)c1ccccc1F` (configuration not stated) gave ALR inh -4, FGF22 binding inactive, MLL AF4-AF9 inh 3.4, Vif A3G 6%, HNF4A DNA FP -0.8, rRNA inh HTS 1, E coli growth 0.68, rRNA inh HTS OD600 16 and rRNA inh HTS RFP -1.7.
For C[C@@H]1CN([C@H](C)CO)S(=O)(=O)c2ccc(-c3ccc(C(=O)N(C)C)cc3)cc2O[C@H]1CN(C)C(=O)C1CCCCC1 the results were FGF22 binding inactive, MLL AF4-AF9 inh 8.0, rRNA inh HTS -2, rRNA inh HTS OD600 -6 and rRNA inh HTS RFP -2.2.
For COc1ccc(CNC(=O)C2Cc3ccccc3CN2C(=O)c2ccco2)cc1 (configuration not stated) the results were FGF22 binding inactive, MLL AF4-AF9 inh 3.1, Vif A3G -6%, HNF4A DNA FP 0.9, rRNA inh HTS -2, E coli growth 0.72, rRNA inh HTS OD600 -3 and rRNA inh HTS RFP 2.8.
For Cc1cc(C)n(/N=C/c2c[nH]c3ccccc23)c(=O)c1 the results were ALR inh -4, Vif A3G 10% and HNF4A DNA FP 0.1.

Some of the compounds tested, so the mix of outcomes need not match the whole.
